# High-throughput results (PubChem)
# LANA-H2B inh: blocks KSHV LANA binding to histone H2A/H2B | Q9QR71 | inhibition, % (test concentration not listed) | 0.6% of 320,000 active | cell-free LANA-H2A/H2B peptide, fluorescence polarization; in the data active means inhibition mostly above about 10%, no sharp cut-off; inactive means mostly below about 6.7%;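 further: stock transfer was 7.5 nL into about 10 µL; 0% = median of vehicle wells and 100% = median of positive control wells; one replicate is shown; the record names a cut of 25% in any replicate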
# Vif TR-FRET: HIV-1 Vif–A3G interaction blockers – biochemical, TR-FRET, GST-Vif 1-94, biotin-A3G peptide, dose response retest, primary screen (AID 1117319); 0.57% of 260,000 active; TR-FRET GST-Vif / biotin-A3G peptide binding; higher % means a stronger effect; test concentration not given here; strong numbers were not always called active; one-dose inhibition, %; IC50 in µM for titrated hits;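 active means above the screen mean plus three standard deviations and confirmed in dose response; inconclusive means results disagree or hit not tested in dose response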;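 further: Vif residues 1-94 fused to GST binding biotinylated APOBEC3G peptide 110-148; 0% = full assay without inhibitor and 100% = GST in place of GST-Vif; retest series ran down from 100 µM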
# UCH37 inh: blocks the human deubiquitinase UCH37; Q9Y5K5; 0.33% of 330,000 active; inhibition, % (no concentration beside the values); purified proteasome/UCH37, Ub-AMC cleavage fluorescence; AID 588478;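 active means mean of two replicates above 20%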;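 further: 0% = compound-free wells with enzyme and 100% = wells lacking proteasome; stock transfer was 100 nL into about 20 µL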
# Target sequence (Q9Y5K5 whole entry, looked up): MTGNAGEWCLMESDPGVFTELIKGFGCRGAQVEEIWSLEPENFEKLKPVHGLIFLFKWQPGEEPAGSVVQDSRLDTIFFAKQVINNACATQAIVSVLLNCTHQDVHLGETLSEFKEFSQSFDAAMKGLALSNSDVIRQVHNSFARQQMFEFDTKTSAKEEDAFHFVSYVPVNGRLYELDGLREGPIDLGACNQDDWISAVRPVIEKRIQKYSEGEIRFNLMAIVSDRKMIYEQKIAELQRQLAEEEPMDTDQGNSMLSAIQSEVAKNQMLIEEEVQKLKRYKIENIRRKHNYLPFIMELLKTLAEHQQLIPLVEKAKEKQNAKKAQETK
#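 Material: Human UCH37 enzyme supplied as purified proteasome complex | Schedule: 30 min preincubation with enzyme, 25 min cleavage at room temperature | Detection: AMC fluorescence 355/460 nm | Measure: % inhibition of Ub-AMC cleavage fluorescence | Controls: Wells without proteasome as full block, compound-free enzyme plus substrate as uninhibited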
# A1 inh: inhibitors of the anti-apoptotic protein A1, read as caspase activation | MEF A1-2A-BIM cells, Caspase-Glo 3/7 luminescence, 3 h; percent of clofoctol response, vehicle zero | caspase activation, % (no concentration beside the values) | 0.066% of 330,000 active;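 active means over half of replicate activation scores above 10%, or exactly half above 10 with the replicate mean above 10; inconclusive means replicate mean below 10 yet half the replicates above 10; inactive means over half of replicates below 10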;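 further: wells of about 30 µL received 50 nL stock; many hits fall short of the cut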
# HNF4A DNA FP: change in binding of human HNF4 alpha to DNA | HNF4a-FITC DNA binding, fluorescence polarization, 1 h | activity change, % at 10 µM | 0.3% of 360,000 active | P41235; in the data active means activity change above about 30%, passing the limit was not always enough;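 further: controls were the assay level and a saturating level of protein; the project sought stronger binding though the title names inhibitors; some compounds called inactive have numbers as strong as hits; positive values seem to mean higher polarization but the record does not say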
# E coli growth: E. coli growth inhibition; Escherichia coli growth, OD600, 23 h; active compounds read low; OD600 absorbance (concentration not given with the values); 0.21% of 330,000 active; AID 1053175;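 active means OD600 absorbance below the run mean of sample wells minus 3.6 SD, in any replicate, cut at about 0.56 in these data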;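 further: stock transfer was 300 nL into about 60 µL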
# B2AR ag: agonists of human beta-2 adrenergic receptor inducing internalization; Am2.2-beta2AR cells, FAP receptor internalization, flow cytometry; reference of the scale not given here; response, % (test concentration not listed); 0.43% of 340,000 active; P07550; AID 504454;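 active means response above a set limit, near 3 SD of response in nonfluorescent compounds, cut at about 42% in these data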;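 further: stock transfer was 100 nL into about 11 µL; a reference agonist was the positive control; negative values mostly stem from fluorescent compounds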
# Target sequence (P07550 whole entry, looked up): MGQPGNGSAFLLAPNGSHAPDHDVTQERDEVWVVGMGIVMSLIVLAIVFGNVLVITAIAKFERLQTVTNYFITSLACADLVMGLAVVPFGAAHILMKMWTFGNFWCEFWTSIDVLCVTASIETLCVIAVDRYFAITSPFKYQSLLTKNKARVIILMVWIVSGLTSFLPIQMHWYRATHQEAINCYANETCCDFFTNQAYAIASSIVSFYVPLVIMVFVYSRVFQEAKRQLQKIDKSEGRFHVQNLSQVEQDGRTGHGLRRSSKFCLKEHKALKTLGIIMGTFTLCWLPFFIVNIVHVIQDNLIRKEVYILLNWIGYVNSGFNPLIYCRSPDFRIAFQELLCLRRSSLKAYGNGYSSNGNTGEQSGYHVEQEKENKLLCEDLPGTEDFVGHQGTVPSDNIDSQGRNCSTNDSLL
# An asterisk follows results filed as active; u = inconclusive; x = not tested or not shown.
No.	molecule	LANA-H2B inh	Vif TR-FRET	UCH37 inh	A1 inh	HNF4A DNA FP	E coli growth	B2AR ag
1	COc1cc(CO)ccc1OCC(=O)Nc1ccc(Br)cc1	-1.4	7%	3.9	-1.1	1.4	0.64	1
2	COc1ccccc1C(=O)Nc1sc2c(c1C(N)=O)CCCC2	1.5	x	-251	-0.9	-1.1	0.67	-10
3	O=C(CN(C(=O)c1csnn1)c1ccccc1F)NC1CCCCC1	-2.5	-17%	5.4	0.0	1.6	0.69	-3
4	COC(=O)C(C)SC1=N/C(=C/c2ccc(-n3cncn3)cc2)C(=O)N1 (stereo not drawn)	0.0	2%	6.0	1.3	3.6	0.72	28
5	CCc1ccc(Nc2ncccc2C#N)cc1	-0.8	0%	-2.7	-1.6	-4.6	0.76	-13
6	COc1ccc(C(=O)NC2CC2)cc1OC1CCN(Cc2ccc(F)cc2)CC1	-12	x	2.6	2.4	-0.2	0.73	-1
7	N#C/C(=C/C1=C(N2CCOCC2)C(=C/c2ccccc2)/CC1)C(=O)Nc1ccccc1F	x	-3%	8.5	x	84	0.72	-246
8	CC(C)CCn1c(SCCN2CCOCC2)nc2c1c(=O)[nH]c(=O)n2C	3.7	0%	0.2	-0.2	-1.8	0.73	16
9	Cc1ccnc(NC(=O)CCCc2ccccc2)c1	4.2	-2%	5.3	-2.2	4.2	0.69	-2
10	O=C(CSc1nnc(C2CC2)n1C1CC1)c1ccc(F)c(F)c1	0.3	7%	0.6	0.4	0.3	0.69	-1
11	COc1cc(C)c(N(C(C)=O)c2ccccc2)c(C)c1	7.2	4%	1.3	-3.3	0.6	0.75	-5
12	Cc1nc(SCC(=O)c2ccc(F)c(F)c2)[nH]c(=O)c1Oc1ccc(F)cc1	1.3	-1%	4.7	-0.3	1.9	0.68	-3
13	O=C(N/N=C/c1ccccc1O)NC12CC3CC(CC(C3)C1)C2	-0.4	0%	x	1.4	0.6	x	16
14	O=C(CSc1ncc(-c2ccccc2)nn1)NCc1ccco1	1.9	16%	1.9	0.6	-6.9	0.69	-12
15	COc1ccc(OC)c(N(CC(=O)N2CCc3ccccc3C2)S(C)(=O)=O)c1	1.5	6%	5.7	-0.2	2.5	0.64	-5
16	CCc1ccc(NS(=O)(=O)c2c(C(=O)N3CCCCCC3)c(C)n(C)c2C)cc1	4.3	x	0.5	1.3	-0.2	0.67	3
17	Cc1ccc2cccc(OCc3ccccc3)c2n1	-2.8	x	-2.9	-0.8	1.0	0.7	5
18	O=C(Nc1ccc(S(=O)(=O)Nc2cnc3ccccc3n2)cc1)c1ccc(Cl)c([N+](=O)[O-])c1	-0.4	x	-4.7	0.8	-5.5	0.67	5
19	Cc1cc(C(=O)NC(Cc2ccccc2)C(=O)O)c(C)o1 (stereo not drawn)	-1.6	8%	0.3	0.4	-2.3	0.7	-2
20	CC(=O)Cn1cnc2c(sc3nc(C)cc(C)c32)c1=O	10	1%	3.2	0.7	4.0	0.64	-8
21	N#Cc1ccc(Cl)cc1NC(=O)CSc1cccc[n+]1[O-]	0.4	-6%	5.0	0.1	0.1	0.71	2
22	Cc1ccc(N2C(=O)C3CC3C2=O)cc1 (stereo not drawn)	1.1	x	0.4	0.6	1.2	0.7	-2
23	COC(=O)c1c(C(=O)OC)c(-c2cccc(F)c2)n2c1CS(=O)(=O)C2	1.5	-9%	4.4	0.2	1.4	0.69	-3
24	Cc1ccsc1/C=N/NC(=O)CSCc1ccc(Cl)cc1	3.8	-6%	x	0.5	1.6	x	2
25	COC1OC(COC(=O)c2ccccc2)C(OC(=O)c2ccccc2)C1OC(=O)c1ccccc1 (stereo not drawn)	-2.7	3%	0.7	0.2	2.8	0.66	15
26	COc1cccc(OCC(=O)O/N=C(\N)c2ccncc2)c1	0.0	-5%	3.2	0.4	10	0.7	4
27	O=C(NC1CCCc2ccccc21)c1cc(Cl)ccn1 (stereo not drawn)	2.2	x	5.3	0.2	-4.5	0.66	-2
28	CCOc1ccc(/C=N/NC(=O)c2cccc3ccccc23)c(OCC)c1	0.2	x	x	0.0	2.4	x	9
29	COc1ccc(C(=O)Nc2ccc(OCC(=O)N3CCOCC3)cc2)c(OC)c1OC	1.0	6%	x	0.0	4.5	x	3
30	COCCCN1C(=O)N(c2ccc(F)cc2)C(=O)C1CC(=O)Nc1ccccc1 (stereo not drawn)	-3.1	1%	-2.4	-0.5	4.5	0.68	-6
31	O=C(NC1CC2CCCC(C1)N2Cc1ccco1)NC12CC3CC(CC(C3)C1)C2 (stereo not drawn)	-6.1	1%	0.4	0.1	1.4	0.71	-3
32	Cc1cc2cc(CNC(=S)Nc3ccc(OC(F)F)cc3)ccc2[nH]1	-2.9	5%	2.9	0.4	-0.5	0.75	9
33	Cn1c(=O)c(/C=C/c2ccc(F)cc2)nc2ccccc21	x	u	-46	x	2.0	0.71	0
34	CCN(CC)CCN(Cc1cc2ccc(C)cc2[nH]c1=O)C(=O)Nc1ccc(Cl)cc1	-7.4	-6%	5.3	1.7	-4.5	0.68	-8
35	COc1ccc(-c2cc(-c3ccccc3)nc(SCC(=O)Nc3nccs3)c2C#N)cc1	2.6	x	x	-1.6	3.9	x	-5
36	CCn1cc(/C=N/NC(=O)c2ccc3c(c2)OCO3)cn1	0.9	-6%	x	-1.0	-2.4	x	2
37	COc1ccccc1C(=O)NCCC(=O)N(C)CC(=O)Nc1ccc(Cl)cc1	-3.6	5%	1.6	1.3	-3.6	0.65	-9
38	COC(=O)CSc1nnc(COc2ccc3ccccc3c2)o1	-0.6	x	3.4	2.4	5.6	0.71	2
39	Cc1cccc(OCc2nnc(SC(C)C(=O)O)n2-c2ccccc2)c1 (stereo not drawn)	-0.6	7%	1.5	0.2	-1.1	0.63	0
40	CN1C(=O)c2ccccc2C(C(=O)O)C1c1cccc([N+](=O)[O-])c1 (stereo not drawn)	-1.0	-10%	3.6	0.0	-4.0	0.72	-1
41	CCOc1ccc(NC(=O)CSc2nc(=O)n(CCN3CCOCC3)c3c2CCCC3)cc1	-6.7	28%	3.6	0.5	0.6	0.67	17
42	CCCc1cc(=O)n2c([nH]c3ccccc32)c1C#N	-2.7	14%	-448	-8.4	4.9	0.63	-5
43	O=C(Nc1ccccc1C(F)(F)F)c1cc2ccccc2o1	-3.2	-7%	3.4	-11	1.9	0.68	15
44	COc1cc2c(cc1OC)CN(C(=O)/C=C/c1cccc([N+](=O)[O-])c1)CC2	-5.3	-12%	3.9	0.2	0.5	0.71	-3
45	CCOc1ccccc1NC(=O)COC(=O)C12CC3CC(CC(O)(C3)C1)C2	x	-4%	3.9	x	-0.1	0.7	0
46	Cc1ccc2c(=O)[nH]c(Nc3nc(C)cc(-c4ccccc4)n3)nc2c1	1.2	-4%	3.7	0.1	3.7	0.69	-3
47	COc1ccc2c(c1)CC/C(=C/c1ccccn1)C2=O	1.5	-2%	-0.4	1.6	-3.2	0.66	6
48	O=C(Nc1ccccc1-c1nnc(SCc2ccc(Cl)cc2Cl)o1)c1ccccc1	-10	x	-13	0.2	2.7	0.76	0
49	Cc1ccc(S(=O)(=O)NC(c2ccccc2)C(C)C(=O)n2nc(C)cc2C)cc1 (stereo not drawn)	-0.3	32%	2.4	0.7	-3.1	0.75	-1
50	COc1cccc(-c2cc(C(F)(F)F)nc(-n3cc(Cl)cn3)n2)c1	-1.9	8%	-34	-1.8	6.0	0.71	-8
51	Cc1cccc(NC(=O)CSCC(=O)Nc2cc(S(=O)(=O)N3CCOCC3)ccc2N2CCCC2)c1	-8.3	x	1.1	-0.4	-1.4	0.73	-4
52	CC(=O)NC(NC(=S)Nc1ccc(C)cc1C)C(Cl)(Cl)Cl (stereo not drawn)	1.1	-4%	-0.9	0.8	-1.0	0.67	-15
53	O=C(CN1C(=O)NC2(CCCC2)C1=O)Nc1ccccc1N1CCCCC1	-1.7	-3%	2.5	0.7	0.9	0.7	-10
54	O=C(COC(=O)c1ccco1)c1ccc2ccccc2c1	-1.4	11%	-9.7	u	2.5	0.71	-3
55	O=C(CCCC(=O)N(CC(=O)NC1CCCCC1)Cc1ccco1)Nc1ccccn1	6.8	1%	-1.5	0.7	-2.2	0.77	-10
56	CCn1c2ccccc2c2cc(NC(=O)c3cc(OC)cc(OC)c3)ccc21	0.2	x	-3.9	1.9	-2.3	x	23
57	CCN(CC)CCNC(=O)c1nn(-c2ccc(Cl)cc2)c2c1CCc1cc(OC)ccc1-2	x	2%	x	x	-1.7	x	-5
58	O=C1CC(c2ccccc2)=NN1c1ccccc1	x	2%	-2.8	x	2.0	0.62	15
59	Cc1c2cnn(CC(=O)Nc3c(F)c(F)cc(F)c3F)c(=O)c2c(C)n1Cc1ccc(F)cc1	-4.0	-6%	0.4	-0.6	x	0.68	x
60	COc1ccccc1NC(=O)c1ccc2c(c1)N(CC#N)C(=O)C(C)(C)O2	-1.2	x	5.0	-0.2	0.3	0.71	-2

# Excerpt: compounds 56 to 60
No.	molecule	LANA-H2B inh	Vif TR-FRET	UCH37 inh	A1 inh	HNF4A DNA FP	E coli growth	B2AR ag
56	CCn1c2ccccc2c2cc(NC(=O)c3cc(OC)cc(OC)c3)ccc21	0.2	x	-3.9	1.9	-2.3	x	23
57	CCN(CC)CCNC(=O)c1nn(-c2ccc(Cl)cc2)c2c1CCc1cc(OC)ccc1-2	x	2%	x	x	-1.7	x	-5
58	O=C1CC(c2ccccc2)=NN1c1ccccc1	x	2%	-2.8	x	2.0	0.62	15
59	Cc1c2cnn(CC(=O)Nc3c(F)c(F)cc(F)c3F)c(=O)c2c(C)n1Cc1ccc(F)cc1	-4.0	-6%	0.4	-0.6	x	0.68	x
60	COc1ccccc1NC(=O)c1ccc2c(c1)N(CC#N)C(=O)C(C)(C)O2	-1.2	x	5.0	-0.2	0.3	0.71	-2

# (listing goes on)
No.	molecule	LANA-H2B inh	Vif TR-FRET	UCH37 inh	A1 inh	HNF4A DNA FP	E coli growth	B2AR ag
61	CN(Cc1ccco1)C(=O)Cn1cc(S(=O)(=O)N2CCCC2)c(S(=O)(=O)N2CCCC2)c1	0.3	x	1.2	-1.1	-4.2	0.67	4
62	O=C(CN1CCCCC1)NC1CCc2cc3c(cc21)CCC3 (stereo not drawn)	-7.0	x	5.7	0.9	-1.6	0.7	1
63	OCCN1CCN(c2cc(-c3ccccc3)c3ccccc3n2)CC1	1.3	-4%	-54	0.2	-2.8	0.7	-5
64	COc1cc2ccnc(Cc3cccc(OC)c3OC)c2cc1OC	-2.0	5%	2.9	-0.6	-6.6	0.63	-5
65	CC[C@]12c3[nH]c4ccc(OC)cc4c3CCN1C(=O)C(CC(=O)NCC13CC4CC(CC(C4)C1)C3)C[C@@H]2C(=O)N1CCN(C(=O)C2CC2)CC1 (stereo partly drawn)	x	x	1.7	x	0.5	0.7	3
66	N/C(=N\OC(=O)CCc1ccccc1)c1cccc(Br)c1	2.9	1%	2.2	0.6	2.7	0.7	-2
67	Cc1nn(-c2ccccc2)c(Cl)c1/C=N/N1CCN(c2ccccn2)CC1	-0.9	x	x	1.2	-0.6	x	2
68	N#CC1=C(N)N(c2ccccc2)C(c2ccco2)C1(C#N)C#N (stereo not drawn)	-1.0	33%	-8.6	-0.1	-0.6	0.67	0
69	CC1CCc2c(sc(NC(=O)C3CCCO3)c2C#N)C1 (stereo not drawn)	-3.0	-9%	3.0	0.0	-2.3	0.7	0
70	COc1cc2sc3ccc(C#CC4(O)CCCCC4)cc3c(=O)c2cc1OC	2.7	x	-2.5	-0.8	0.1	0.71	27
71	O=C(COc1cccc2ccccc12)NCc1cccnc1	0.7	6%	1.0	-1.1	1.4	0.66	-4

# Rows are unselected; 2.1% or so of the library scored in one or more.
